Choline anaer gr – choline-fed anaerobic bacterial growth inhibition; Gram-negative bacterium anaerobic choline minimal medium, absorbance growth; stronger effect = lower value; many inactives read as strong as hits in the columns shown; calls only; 55,000 tested, 0.2% active;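 active = growth z-score on choline under -2 at 7 or 20 h with little or no fall on glycerol, limits in tiers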;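 note: stock transfer was 300 nL into about 50 µL; the organism is E. coli; final concentration not given here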
Choline anaer gr early – second read-out of Choline anaer gr, no call of its own (marks repeat the call); z-score; measured here: choline growth z-score, timepoint 1;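 score of optical density at 7 h as mean of two plates; lower means less growth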
Active calls of the source: *; i = inactive; + = active, no number; & = joins results of further samples. Not all compounds are listed; the hit share may differ from the screen's.

SMILES,Choline anaer gr,Choline anaer gr early
Cc1cc(C)n(-c2cc(Nc3ccc(C)c(C)c3)ncn2)n1,i,-0.8
O=C(NC1CC1)C1CCN(c2nc3ccccc3nc2C(F)(F)F)CC1,i,0.45
CN(CCNC(=O)CC1CCN(S(=O)(=O)c2ccccc2)CC1)C1CCCCC1,i,-0.39
O=C(NC1CC1)c1cccn2c(-c3ccc(F)cc3)nnc12,i,-0.59
COc1ccc(N2C(=O)CCS2(=O)=O)cc1S(=O)(=O)N(C)C1CCS(=O)(=O)C1 (stereo unspecified),i,-1.9
Cn1c(=O)c2nc(S(=O)(=O)CCC(=O)Nc3cc(Cl)ccc3F)n(C)c2n(C)c1=O,i,0.29
Cc1ccc(S(=O)(=O)Nc2ccc(C(=O)N3CCCC(C(=O)NC(C)C)C3)cc2)cc1 (stereo unspecified),i,0.59
O=S(=O)(c1cccc(Cl)c1)n1ccnc1,i,-0.2

Next section
SMILES,Choline anaer gr,Choline anaer gr early
CCCOc1ccc(C2CC(=O)Nc3c2c(C)nn3-c2nc3ccccc3s2)cc1 (stereo unspecified),i,1.6
CCCNC(=O)N(C)CCc1noc(C(=O)NCc2ccc3c(c2)OCO3)n1,i,-0.05
Cc1nc2nc(NCc3ccc(Cl)cc3)[nH]n2c(=O)c1CCC(=O)Nc1nccs1,i,1.9
CCCC(=O)N1CCc2c(c(C(=O)N3CCCC(C(=O)Nc4ccccc4)C3)nn2C)C1 (stereo unspecified),i,-0.59
O=C(c1cc2ccccc2[nH]1)N1CCC2(CC1)Nc1ccccc1-n1cccc12,i,0.37
O=S(=O)(c1ccc2nc(N3CCN(c4ccccn4)CC3)cnc2c1)N1CCCCC1,i,-0.43
CSc1ccc2c(c1)N(CCC1CCCCN1C)c1ccccc1S2 (stereo unspecified),i,0.12&0.39&-1.8
Cc1c(Cl)cccc1NC(=O)CCc1nc(CSc2nc3ccccc3[nH]2)no1,i,-0.23

Further compounds
SMILES,Choline anaer gr,Choline anaer gr early
O=C(OCC1CCCO1)c1nc2ccccc2nc1Nc1ccc(Br)cc1 (stereo unspecified),i,1.4
CCOC(=O)N1CCC(NC(=O)C2CCN(c3nc4nc[nH]c(=O)c4s3)CC2)CC1,i,0.77
O=C(NCCCN1CCC(N2CCCCC2)CC1)c1cc(-c2ccccc2)c(N2CCCCC2)s1,i,-4
CC(=O)N1CCCSc2ccc(S(=O)(=O)N3c4ccccc4CC3C)cc21 (stereo unspecified),i,-0.36
CCc1ccc(C2CC(=O)Nc3c2c(C)nn3-c2ccc3nnc(C)n3n2)cc1 (stereo unspecified),i,-0.3
COC(=O)[C@H]1[C@H]2C[C@H]3c4[nH]c5ccccc5c4CCN3C[C@H]2CC[C@@H]1O,i,-0.06
COc1ccc(NC(=O)CCS(=O)(=O)c2cc(-c3cc(C)no3)ccc2C)c(OC)c1,i,0.27
COc1nc2ccccc2nc1OC,i,-1.2

More structures follow:
SMILES,Choline anaer gr,Choline anaer gr early
CCc1onc(C)c1C1CCCN1Cc1ccc(OC)cc1O (stereo unspecified),i,-0.55
Cc1ccc2snc(C(=O)N3CCN(S(=O)(=O)c4ccc(Br)cc4)CC3)c2c1,i,-0.68
O=C(Nc1cc(-c2ccsc2)no1)C1CC1,i,-0.47
Cc1ccc(-c2nc(S(=O)(=O)c3ccc(C)cc3)c(N3CCCC3)o2)cc1,i,1.6
CCC(C)NC(=O)c1cc2c(Cl)ccc3c2n1CC(CC)O3 (stereo unspecified),i,-0.86
CCC(C)NC(=O)c1cc2n(n1)CC(C)(C(=O)NC1CCCCC1)N(C)C2=O (stereo unspecified),i,0.78
COc1cccc(NC(=O)N2CCC(CN3CCCCC3)CC2)c1,i,0.68
CCc1cc(C(Nc2cccc(C)n2)c2cccnc2)c(NC(=O)c2ccccc2)s1 (stereo unspecified),i,-0.5

(next part)
SMILES,Choline anaer gr,Choline anaer gr early
COc1ccc(Br)c(C(=O)NC(c2ccccc2)c2nnc(-c3ccccc3)o2)c1 (stereo unspecified),i,1.4
CCOC(=O)c1c(C)[nH]c(C(=O)N2CCCC(C(=O)N3CCOCC3)C2)c1C (stereo unspecified),i,0.25
CC(NS(=O)(=O)c1cc(-c2nc(C(C)(C)C)cs2)cs1)c1ccccc1 (stereo unspecified),i,0.73
CCOC(=O)COc1ccc(C)cc1C(=O)c1ccn2nc(-c3ccc(Cl)cc3)cc2n1,i,0.81
CN(CCCNC(=O)c1cccc(NC(=O)c2nnc(COc3ccccc3)s2)c1)c1ccccc1,i,1.8
CN(C)c1ccc(C(=O)N2CCN(c3ccccn3)CC2)cc1S(=O)(=O)N(C)C,i,-0.06
Cc1cc(N2CCC(NC(=O)Nc3ccc(F)cc3)CC2)n2ncnc2n1,i,1.9
CC1(C)CN(CC(=O)N2CCCC2)c2ccc(S(=O)(=O)N3CCN(c4ccccn4)CC3)cc21,i,0.69

Next results:
SMILES,Choline anaer gr,Choline anaer gr early
Cc1ccc(N(C)S(=O)(=O)c2cc(-c3cc(C(F)(F)F)on3)sc2C)cc1,i,0.22
CCCN1CCN(C(=O)C2CC(=O)N(c3ccc4c(c3)CCN4C(=O)CC)C2)CC1 (stereo unspecified),i,0.46
Cc1cc(-c2nc(-c3ccncc3)no2)n[nH]1,i,-2.3
Cc1c(N2CCC(C(=O)N3CCc4ccccc4C3)CC2)c(=O)n(C)c(=O)n1-c1ccccc1,i,-0.06
CCn1c(CN(C)C(=O)NC2CCCCC2)nc2cc(C(=O)N(C)C)ccc21,i,1.4
Cc1ccc(C)c(NC(=O)N2CCN(c3ccc(-c4noc(C)n4)cc3)CC2)c1,i,0.61
O=C(CN1CCCN(Cc2ccccc2)S1(=O)=O)Nc1ccc2c(c1)OCCO2,i,-0.52
O=S(=O)(Nc1ccc(Cl)cn1)c1cc(-c2noc(C3CCCC3)n2)cs1,i,0.18

Complete entries, looked up by structure.
`CCCN1CCN(C(=O)C2CC(=O)N(c3ccc4c(c3)CCN4C(=O)CC)C2)CC1` (stereo unspecified) reads Choline anaer gr: i; Choline anaer gr early: 0.46
`Cc1ccc(N(C)S(=O)(=O)c2cc(-c3cc(C(F)(F)F)on3)sc2C)cc1` reads Choline anaer gr: i; Choline anaer gr early: 0.22

Carrying on:
SMILES,Choline anaer gr,Choline anaer gr early
Cc1cccc2c1cnn2C(=O)CCC(=O)N1CCC(C)CC1,i,1.7
Cc1nc(-c2cccc(N3CC(C(=O)N4CCc5ccccc54)CC3=O)c2)no1 (stereo unspecified),i,0.54
CCCn1c2ccccc2n2cc(-c3ccc(F)cc3)nc12,i,1.8
Cc1nnc2sc(-c3cc(CC(C)C)[nH]n3)nn12,i,1.2
COc1ccc(-c2csc3c(=O)n(C)cnc23)cc1,i,-0.61
Cc1ccc(-c2nc3nc(C)c(CC(=O)NC(C)C)c(C)n3n2)cc1,i,0.17
CNCc1ccc(-c2cccc(C(F)(F)F)c2)o1,i,-1.4
O=S1(=O)CCCCN1c1ccc(S(=O)(=O)N2CCN(c3ccccc3F)CC2)cc1,i,0.43

Sorted by the number under Choline anaer gr early (low to high): three of the compounds above.
compound	Choline anaer gr early
Cc1ccc(-c2nc3nc(C)c(CC(=O)NC(C)C)c(C)n3n2)cc1	0.17
Cc1nc(-c2cccc(N3CC(C(=O)N4CCc5ccccc54)CC3=O)c2)no1 (stereo unspecified)	0.54
Cc1nnc2sc(-c3cc(CC(C)C)[nH]n3)nn12	1.2

Continuation.
SMILES,Choline anaer gr,Choline anaer gr early
CN(Cc1ccc(F)cc1)Cc1cc(=O)n2nc(C3CC3)sc2n1,i,0.07
Cc1cc(SCC(=O)Nc2cccc(F)c2)nc2ccc(S(=O)(=O)N3CCCC3)cc12,i,0.59
CCOc1ccccc1NC(=O)Nc1ccc(-c2nc3ccccc3s2)cc1,i,-0.51
CN(C1CCCCC1)S(=O)(=O)c1c[nH]c(-c2nnc(C(=O)N3CCCC3)o2)c1,i,0.82
CC(C)NC(=O)c1ccc(-c2nc3cc(NS(=O)(=O)c4cc(F)ccc4F)ccc3n2C)cc1,i,0.48
CC(C)c1ccc(NC(=O)CSC2=Nc3ccccc3N=C(c3ccccn3)C2)cc1,i,0.97
Cc1ccc(-c2ccnc3c2c(=O)[nH]c(=O)n3C)cc1,i,-0.11
CC1(C)NC(=O)N(c2ccc([N+](=O)[O-])c(C(F)(F)F)c2)C1=O,i,0.73&0.66

Already shown: four of the compounds above.
SMILES,Choline anaer gr,Choline anaer gr early
CN(C1CCCCC1)S(=O)(=O)c1c[nH]c(-c2nnc(C(=O)N3CCCC3)o2)c1,i,0.82
CC(C)NC(=O)c1ccc(-c2nc3cc(NS(=O)(=O)c4cc(F)ccc4F)ccc3n2C)cc1,i,0.48
CC(C)c1ccc(NC(=O)CSC2=Nc3ccccc3N=C(c3ccccn3)C2)cc1,i,0.97
Cc1ccc(-c2ccnc3c2c(=O)[nH]c(=O)n3C)cc1,i,-0.11

The listing continues.
SMILES,Choline anaer gr,Choline anaer gr early
CCc1noc2ncnc(Nc3ccc(F)c(Cl)c3)c12,i,-0.01
CCCCCCCCCCC/C=C\C/C=C\CCCC(=O)O,+,-3.3*
Cc1cc(Sc2ccc(NC(=O)C(C)C)cc2)n2ncnc2n1,i,-1.3
O=C(Nc1ccccc1Br)c1cc(-c2ccccn2)nc2ccccc12,i,-0.03
Cc1ccc(CNS(=O)(=O)c2c(C)[nH]c(C)c2-c2nnc(C)o2)o1,i,-1
c1ccc(-c2noc(-c3ccncc3)n2)cc1,i,-0.14
O=C(c1cnc2ccc(Cl)cc2c1S(=O)(=O)c1ccc(Br)cc1)N1CCCC1,i,-1.4
CNCCC=C1c2ccccc2CCc2ccccc21,i,0.09&-1.2

(further entries)
SMILES,Choline anaer gr,Choline anaer gr early
CCCCCn1c(CCCNC(=O)C(C)C)nc2ccccc21,i,0.39
Cc1cccc(N2C(=O)N(CC(=O)c3ccc(F)cc3)c3ccccc3S2(=O)=O)c1,i,0.99
CC(=O)Nc1ccc(C2C(C(N)=O)=C(C)Nc3ncnn32)cc1 (stereo unspecified),i,-1.5
O=C1CCCc2[nH]c(=O)c(C(=O)Nc3ccc(F)cc3)cc21,i,-0.05
Cn1ccc(CN2CCC(N3CCCCC3)CC2)cc1=O,i,1.2
Cc1ccc(Cn2c(=O)c(N3CCCC(C(=O)NCc4ccc(Cl)cc4)C3)nc3ccccc32)cc1 (stereo unspecified),i,-0.01
COCCn1c(CNC(=O)c2ccc(OC)c(OC)c2)nc2cccnc21,i,-0.62
Cc1ccc(NC(=O)Cn2c(=O)n(Cc3nc(C)no3)c(=O)c3cc4c(cc32)OCO4)c(Cl)c1,i,0.1

Later entries
SMILES,Choline anaer gr,Choline anaer gr early
O=C(c1ccccc1)N1CCN(Cc2cc(=O)n3nc(-c4ccccc4)sc3n2)CC1,i,-0.57
Cc1ccc(-c2nc(CN3CCCC(C(=O)Nc4ccc(C(C)C)cc4)C3)no2)cc1 (stereo unspecified),i,1.6
C=CCn1c(=O)c(=O)n(CC(=O)NCCCN2CCCC2=O)c2ccccc21,i,-0.96
Cc1cc(N2CCC(C)CC2)n2nc(CN3CCN(c4ccccn4)CC3)nc2n1,i,1.9
COCCCN1CCc2nc(SCc3cccc(Cl)c3)[nH]c(=O)c2C1,i,-0.76
Cc1ccc(C(=O)Nc2cnc3c(C)cccn3c2=O)cc1,i,0.14
CCCCCSC1=Nc2ccccc2NC(CC(=O)OC)=C1,i,-0.41
CCCOc1ccc(NC(=O)c2cc(=O)c3ccc(C)cc3o2)c2cccnc12,i,0.39

Going on with the list.
SMILES,Choline anaer gr,Choline anaer gr early
CCNC(=O)C1CCN(c2nc3nc[nH]c(=O)c3s2)CC1,i,1.2
CCOc1ccc(-c2cc3c(=O)n(Cc4nc(-c5cccc(C)c5)no4)ncn3n2)cc1,i,-0.15
CCn1ccc2cc(S(=O)(=O)N3CCCN(C(=O)Nc4ccccc4C(=O)OC)CC3)ccc21,i,-0.78
COC(=O)C1=C(C#N)NC(C)=C(C(=O)OC(C)C)C1c1cccc([N+](=O)[O-])c1 (stereo unspecified),i,0.17&0.93
Cc1cc(C)c(S(=O)(=O)N2CCC(c3noc(-c4ccc(F)cc4)n3)CC2)cc1C,i,0.48
CCOCCCN1C(=O)CN(C2CCCCC2)C(=O)C1c1ccc(OC)c(OC)c1 (stereo unspecified),i,-0.46
COc1ccc(NC(=O)c2ccnc(N3CCC(C)CC3)c2)cc1,i,0.27
Cc1c(C(=O)NCC2CCCO2)nnn1-c1ccc2noc(-c3ccc(Br)cc3)c2c1 (stereo unspecified),i,-0.23

Additional structures follow.
SMILES,Choline anaer gr,Choline anaer gr early
CCOC(=O)C1CCCN(c2c(NCCN3CCCCC3CC)c(=O)c2=O)C1 (stereo unspecified),i,-0.04
CCCc1noc(Cn2ccnc2C)n1,i,0.84
Cn1c(C(=O)N2CCN(c3ccccc3)CC2)cc2c(=O)oc3ccccc3c21,i,0.1
Cc1ccc2nc3c(cc2c1)CCN3C(=O)C(C)(C)C,i,-1.3
O=C(c1csc(S(=O)(=O)NC2CCCCC2)c1)N1CCOCC1,i,0.37
CC(C)(C)N1CC(c2nc3ccccc3n2CC(O)COc2ccccc2)CC1=O (stereo unspecified),i,-2
Cc1sc(-c2cc(C(F)(F)F)[nH]n2)cc1S(=O)(=O)N1CCN(c2ccc(Cl)cc2)CC1,i,1.2
CCC(C)NS(=O)(=O)c1c(C)nn(-c2ccc(-c3ccc(C)cc3)nn2)c1C (stereo unspecified),i,0

Additional structures follow:
SMILES,Choline anaer gr,Choline anaer gr early
CC(C)c1c(C(=O)Nc2ccccc2)c(-c2ccccc2)c(-c2ccc(F)cc2)n1CC[C@@H](O)C[C@@H](O)CC(=O)O,i,0.37&-0.45
COc1cc(OC)c(NC(=O)Cn2nc(C)c3c(C)n(-c4ccccc4)nc3c2=O)cc1Cl,i,-0.38
CN(CC(=O)Nc1cccc(Br)c1)S(=O)(=O)c1cc2c(cc1Cl)NC(=O)CO2,i,-0.51
O=C(NC1CC1)c1nc(Cn2c(=O)oc3ccc(Cl)cc32)no1,i,-0.9
